TRPML1 blocker: qHTS for Inhibitors of the Human Mucolipin Transient Receptor Potential 1 (TRPML1). Mucolipin-1 (Homo sapiens), Q9GZU1. TRPML1-inducible cells, Ca2+ dye fluorescence, FDSS; hits give low values; inhibition of EC80 agonist-evoked calcium signal. activity change, negative = inhibition, % (no concentration beside the values). AID 624415, 2012. hit rate 0.02% among 390,000; in the data active means activity change below about -50%; inconclusive means about -30% to -50%; inactive means above about -30%;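 note: stimulus is agonist 54-4 at its EC80 concentration; % is set by controls: 0 for no effect and ±100 for the full control effect; compound concentration not given in the record; the text of the record puts the active cut at -80%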
Target sequence (Q9GZU1 whole entry, looked up): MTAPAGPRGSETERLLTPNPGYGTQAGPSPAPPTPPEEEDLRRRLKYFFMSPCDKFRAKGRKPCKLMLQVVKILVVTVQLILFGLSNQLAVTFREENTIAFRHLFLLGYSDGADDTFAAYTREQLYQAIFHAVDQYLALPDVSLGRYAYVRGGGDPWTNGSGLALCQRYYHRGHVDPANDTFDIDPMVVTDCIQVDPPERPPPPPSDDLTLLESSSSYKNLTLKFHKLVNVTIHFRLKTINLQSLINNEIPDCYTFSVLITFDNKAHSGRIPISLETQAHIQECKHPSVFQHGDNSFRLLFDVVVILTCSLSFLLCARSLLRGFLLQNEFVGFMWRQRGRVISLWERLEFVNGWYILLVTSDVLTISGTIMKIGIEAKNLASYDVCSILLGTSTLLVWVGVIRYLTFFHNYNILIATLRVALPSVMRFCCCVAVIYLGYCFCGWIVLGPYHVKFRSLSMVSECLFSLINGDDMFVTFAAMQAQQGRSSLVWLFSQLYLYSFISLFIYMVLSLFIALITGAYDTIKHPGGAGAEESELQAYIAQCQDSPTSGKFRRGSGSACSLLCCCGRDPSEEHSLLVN
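TRPML1-DL cells, Tet-induced overnight (~16 h, 37 °C) at 1,500 cells/well, were loaded with Ca8 no-wash dye plus quencher for 45-90 min at room temperature. Compounds were pinned during FDSS kinetic reading; agonist 54-4 at EC80 (4 uM final) then added.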
TRPML1 agonist: qHTS for Agonists of the Human Mucolipin Transient Receptor Potential 1 (TRPML1); Mucolipin-1 (Homo sapiens), Q9GZU1; TRPML1-expressing cells, Ca2+ dye fluorescence, FDSS; host cell line not named in the record; reference of the full effect not given here; activation, % (concentration not given with the values); hit rate 0.12% among 410,000; in the data active = activation above about 50%; inconclusive = about 30% to 50%; inactive = below about 30%; note: 0% is about no effect; the text of the record puts the active cut at 80%
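Tet-induced TRPML1-DL cells, 1,500 per well, cultured overnight, were loaded with a no-wash Ca2+ dye for 45–90 min. Calcium fluorescence was recorded on the FDSS for 110 s after compound addition, before the EC80 agonist (4 uM 54-4) was added.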
Numbers without * were called inactive; u = inconclusive. These rows are one share of the data (hit frequency here may not be typical).

Preview:
SMILES	TRPML1 blocker	TRPML1 agonist
CCN(CC)CCN(C(=O)c1ccco1)c1nc2ccc(Br)cc2s1	6.9	0.4
Fc1ccccc1-n1ncc2c1ncn1nc(COc3ccc(Cl)cc3)nc21	21.5	-0.5
CC(C)N(Cc1ccccc1)C(=O)Cn1ncc2c3ccccc3n(Cc3ccccc3)c2c1=O	3.4	3.8
CCOc1cccc(NC(=O)C2CC(=O)N(C)C(=Nc3ccc(F)cc3)S2)c1 (stereo not given)	13.2	-1.1
CCc1ccc(NC(=O)COCc2cc(-c3ccc(F)cc3)on2)cc1	17.5	1.8
O=C(Nc1cccc(C(F)(F)F)c1)N1CC2CCCN2c2ccccc21 (stereo not given)	-10.9	0.7
CCOc1ccc(-n2c(-c3ccccc3)c(C)n3c4c(=O)n(C)c(=O)n(C)c4nc23)cc1	20.6	0.8
CSc1ccc(CCNC(=O)C2=C(C)C(=O)OC23CCCCC3)cc1	-10.9	-0.2
CCCCNC(=O)c1ccc2c(c1)NC(=O)C(C(C)C)N2 (stereo not given)	-15.5	-0.4
O=C(CCC(=O)N1CCOc2ccccc21)NCc1cccs1	-10.6	-0.4
COc1ccc(NC(=O)Cc2ccc(NC(=O)N3CCCCc4ccccc43)cc2)c(OC)c1	17.4	-0.2
Cc1cc(C)cc(NC(=O)N2CCC3(CC2)Oc2ccccc2C(=O)N3Cc2ccccc2F)c1	7.0	0.1

Results, previewed entries included:
SMILES	TRPML1 blocker	TRPML1 agonist
CCN(CC)CCN(C(=O)c1ccco1)c1nc2ccc(Br)cc2s1	6.9	0.4
Fc1ccccc1-n1ncc2c1ncn1nc(COc3ccc(Cl)cc3)nc21	21.5	-0.5
CC(C)N(Cc1ccccc1)C(=O)Cn1ncc2c3ccccc3n(Cc3ccccc3)c2c1=O	3.4	3.8
CCOc1cccc(NC(=O)C2CC(=O)N(C)C(=Nc3ccc(F)cc3)S2)c1 (stereo not given)	13.2	-1.1
CCc1ccc(NC(=O)COCc2cc(-c3ccc(F)cc3)on2)cc1	17.5	1.8
O=C(Nc1cccc(C(F)(F)F)c1)N1CC2CCCN2c2ccccc21 (stereo not given)	-10.9	0.7
CCOc1ccc(-n2c(-c3ccccc3)c(C)n3c4c(=O)n(C)c(=O)n(C)c4nc23)cc1	20.6	0.8
CSc1ccc(CCNC(=O)C2=C(C)C(=O)OC23CCCCC3)cc1	-10.9	-0.2
CCCCNC(=O)c1ccc2c(c1)NC(=O)C(C(C)C)N2 (stereo not given)	-15.5	-0.4
O=C(CCC(=O)N1CCOc2ccccc21)NCc1cccs1	-10.6	-0.4
COc1ccc(NC(=O)Cc2ccc(NC(=O)N3CCCCc4ccccc43)cc2)c(OC)c1	17.4	-0.2
Cc1cc(C)cc(NC(=O)N2CCC3(CC2)Oc2ccccc2C(=O)N3Cc2ccccc2F)c1	7.0	0.1
COc1ccc(CNC(=O)C(=O)NCC(c2ccco2)S(=O)(=O)c2cccs2)cc1 (stereo not given)	11.0	0.5
COc1ccc2c(c1)c(=O)c(C(=O)c1ccc(Cl)cc1)cn2CC(=O)Nc1ccc2c(c1)OCCO2	-23.0	-0.2
COc1cc(NC(=O)CC2C(=O)N(c3ccc(Cl)cc3)C(=O)N2Cc2cccs2)cc(OC)c1 (stereo not given)	4.0	-0.3
CCOc1ccc(Nc2ncnc3c2nc2n3CCCC2)cc1	-19.4	0.0
O=C(CSc1nnc(-c2ccc(Cl)cc2)o1)N1CCc2ccccc21	8.4	-0.3
CC(C)NC(=O)c1ccc(CSc2nc3ccncc3n2Cc2cccc(F)c2)cc1	1.7	0.6
CN(C)c1ccc(NC(=O)CN2C(=O)c3ccccc3Sc3ccc(C(=O)N4CCCC4)cc32)cc1	9.0	0.5
Cc1cccn2c3c(c(=O)nc12)C(c1ccc(F)cc1)CC(=O)N3 (stereo not given)	28.7	0.3
O=C1OC(C(=O)Nc2ccc(Cl)c(C(F)(F)F)c2)Cc2ccccc21 (stereo not given)	2.5	3.7
COc1ccc(N2CCN(c3csc4ccc(Cl)cc4c3=O)CC2)cc1	15.5	-0.3
Cc1ccc(S(=O)(=O)n2nc(-c3ccccc3)nc2NCc2ccc(Cl)cc2)cc1	-4.8	-0.8
COc1ccc(-n2ccn(Cc3ccc(C)cc3)c(=O)c2=O)cc1OC	-13.0	1.3
Cc1ccc(C(=O)Nc2nnc(S(=O)(=O)N3c4ccccc4CC3C)s2)cc1 (stereo not given)	-10.6	-0.1
CC(=O)c1ccc(Nc2nc3c(S(=O)(=O)c4ccccc4)nnn3c3ccc(Cl)cc23)cc1	-7.2	0.2
Cc1ccc(NC(=O)c2sc3nc(-c4cccs4)ccc3c2N)cc1F	-12.3	5.2
Cc1cccc(N2CCN(C(=O)c3nn(C)c4c3CSc3ccccc3-4)CC2C)c1 (stereo not given)	-6.3	-0.1
COc1ccccc1NC(=O)c1oc2ccccc2c1NC(=O)C(C)C	-6.2	0.4
Cc1cccc(N2CCN(C(=O)Cn3ncc4c5ccccc5n(C)c4c3=O)CC2C)c1 (stereo not given)	-7.4	2.1
N#Cc1cc2c(=O)n3ccccc3nc2n(-c2nnc(SCc3ccccc3)s2)c1=O	8.7	2.8
CC(=O)N1CCCc2cc(S(=O)(=O)N3CCC(C(=O)N(Cc4ccccc4)C(C)C)CC3)ccc21	4.7	-0.3
FC(F)(F)c1cccc(-n2cc(-c3ccccc3)c3c(N4CCCCC4)ncnc32)c1	3.5	-0.2
COc1ccc(S(=O)(=O)c2nnn(-c3ccc(C)c(Cl)c3)c2C)cc1	20.7	-0.2
Cc1cccn2c(=O)cc(COc3cccc(NC(=O)COc4ccc(F)cc4)c3)nc12	-1.8	3.5
COc1ccc(Nc2ncc(C(=O)Nc3cc(Cl)c(OC)cc3OC)c3ccccc23)cc1	-6.0	-0.2
COc1ccc2c(c1)NC(c1ccc(Cl)cc1)=NC(c1cccs1)=N2	8.1	1.4
CCCNC(=O)Cn1nc(-c2ccc(C)c(C)c2)c2cnc3ccc(OC)cc3c21	-9.2	-0.1
CCOC(=O)c1cc(-c2ccccc2)n(CCCC(=O)Nc2ccc(C)cc2Cl)c1C	u	0.0
CCc1cc(=O)[nH]c(SCc2nc(-c3cccc(Cl)c3)no2)n1	18.3	1.5
COc1ccc(S(=O)(=O)Nc2cccc(-c3ccc(N4CCC(C)CC4)nn3)c2)cc1OC	6.8	2.4
O=C(CN1C(=O)COc2ccc(S(=O)(=O)NC3CCCC3)cc21)NCc1ccc(Cl)cc1	27.5	0.9
CCOC(=O)c1ccc(N2C(=O)c3n[nH]c(-c4ccco4)c3C2c2cccc(OC)c2)cc1 (stereo not given)	8.4	2.1
Cc1ccc(CN2CCC(CNC(=O)c3cnn(-c4ccc(C)cc4)c3C3CCN(C(=O)OC(C)(C)C)CC3)CC2)cc1	-14.9	0.7
COc1ccc(/C=C\C(=O)NC2CC(=O)N(c3ccccc3)C2)cc1OC (stereo not given)	12.0	-0.8
CC(C)C(=O)Nc1nnc2n1CCS2	11.2	0.1
COCCn1c(SCC(=O)Nc2ccc(Br)cc2)nc2c([nH]c3ccccc32)c1=O	-5.2	0.4
Cn1c(=O)n(C)c2cc(NS(=O)(=O)c3ccc(Br)cc3)c(NCc3ccccc3)cc21	13.7	-1.5
Cc1cc(Cl)ccc1NC(=O)CN1C(=O)C(=O)c2ccccc21	-7.4	-0.4
COc1ccc(C(=O)Nc2cc(-c3cccc(C)c3)nn2-c2ccccc2)cc1	-12.0	0.0

Continued.
SMILES	TRPML1 blocker	TRPML1 agonist
O=C(Nc1c(C(=O)c2ccc(F)cc2)oc2ccccc12)c1cc(-c2ccccc2)on1	-0.2	0.2
Cn1c(=O)c2c(nc(NCc3ccccc3)n2Cc2ccccc2Cl)n(C)c1=O	-3.8	0.2
Cc1c(C(=O)Nc2ccc(-c3nc4cc(Cl)ccc4o3)cc2)oc2ccccc12	28.0	0.1
CC(=O)c1ccc(NC(=O)c2ccc(-n3cnnc3)cc2)cc1	14.0	-0.6
Cc1ccc(-n2c(=O)c3c4c(sc3n(Cc3ccccc3C)c2=O)CCC4)cc1C	0.1	-0.2
CCc1ccc(S(=O)(=O)c2cn(CC)c3cc(N4CCOCC4)c(F)cc3c2=O)cc1	-2.0	-1.1
CCOc1ccc(C(=O)c2cn(Cc3ccccc3OC)c3ccc(F)cc3c2=O)cc1	4.2	1.0
Cc1ccc2oc(C(=O)NCC(c3ccc(Cl)cc3)N3CCOCC3)c(C)c2c1 (stereo not given)	11.0	0.3
COc1ccc(-c2cc(C(F)(F)F)nc(SCC(=O)Nc3ccc(O)cc3)n2)cc1OC	30.7	1.8
COc1cccc(N2CC(NC(=O)C3CC3)CC2=O)c1 (stereo not given)	-10.0	-0.9
COC(=O)c1cnc(NCc2ccc(F)cc2)c2ccccc12	50.6	0.2
Cc1cc(N2CCCCC2)nc2ccc(NC(=O)CCC(=O)N3CCN(c4cccc(Cl)c4)CC3)cc12	5.0	1.1
CCC(=O)N1CCc2cc(S(=O)(=O)NC(C(=O)NCCc3ccc(Cl)cc3)C(C)C)ccc21 (stereo not given)	38.9	-0.9
COc1cccc(C(=O)Nc2ccc(-c3cc(C(F)(F)F)nn3-c3ccccc3)cc2)c1	-5.5	3.4
CC(NC(=O)C(=O)Nc1c2c(nn1-c1ccc(F)cc1)CSC2)c1ccccc1 (stereo not given)	37.0	-0.4
CN(C)CCCNC(=O)C(=O)NCC(c1ccc2c(c1)OCO2)N1CCOCC1 (stereo not given)	7.9	0.8
CC1CCCN(Cc2c(O)ccc3c(=O)c(-c4ccc(Cl)cc4)c(C(F)(F)F)oc23)C1 (stereo not given)	6.2	1.7
CN(C)c1ccc(CNC(=O)c2cnc3sc(N4CCOCC4)nn3c2=O)cc1	6.2	1.0
COc1ccc(-c2cc3nc(-c4ccccc4)cc(C(F)(F)F)n3n2)cc1	5.6	0.5
COCCN1Cc2cccc(C(=O)Nc3ccc(C)cc3C)c2C1=O	3.0	0.3
O=c1n(Cc2ccccc2)nc2n1-c1cc(Cl)ccc1OC2	1.4	2.2
CN(C)c1ccc(CN(CC2CCCO2)C(=O)c2ccc(Br)cc2)cc1 (stereo not given)	23.6	0.2
CCc1cccc(CC)c1NC(=O)Cn1nnc2sc(-c3ccccc3)cc2c1=O	-2.4	1.4
CCOC(=O)CSc1nc2ccc(NC(=O)COc3ccccc3C)cc2s1	30.5	0.3
CCCOc1ccc(C2C(=O)N(C3CCC(C)CC3)CC(=O)N2CCC2=CCCCC2)cc1OC (stereo not given)	6.1	0.7
CCc1ccc(NS(=O)(=O)c2ccc3[nH]cc(C(=O)NC4CCCC4)c(=O)c3c2)cc1	19.7	3.4
CCc1ccccc1NC(=O)CN1CCCN(Cc2cc(C)ccc2C)S1(=O)=O	46.2	3.5
Cc1ccc(S(=O)(=O)N2CCc3cc(C(=O)Nc4ccc(C)c(C)c4)ccc32)cc1	3.4	0.0
CCCN(CCC)C(=O)Cn1c(=O)n(-c2cccc(C)c2)c(=O)c2c1c1cc(OC)ccc1n2C	40.1	0.4
COc1cccc(NC(=O)CSc2nccn2C2CCCC2)c1	-15.7	2.7
CCCCN(C)CCCNC(=O)C1CCN(c2nc3ccc(CC)cc3s2)CC1	22.1	0.5
Cc1ccc(CNC(=O)c2ccc(Cn3c(SCc4ccc(F)cc4)nc4cccnc43)cc2)o1	16.3	-0.3
Cc1ccc2c(c1)C(=O)C(=O)N2Cc1ccc(OC(C)C)cc1	-20.9	1.4
O=C(c1ccccc1Cl)N1CCN(CCc2ccccn2)CC1	8.3	0.4
O=C(NCCc1csc(-c2ccc(F)cc2)n1)c1cccs1	-3.1	1.5
COc1ccccc1/C=C/c1nc(C#N)c(N2CCCCCC2)o1	56.5	1.5
Cc1cc2c(cc3c(SCc4ccc(Cl)cc4)nncn32)o1	29.3	-0.8
Cc1ccc(S(=O)(=O)C(CNC(=O)Cc2ccc(Cl)cc2)c2cccs2)cc1 (stereo not given)	8.5	0.4
COc1cc(Nc2ncnc3onc(-c4ccc(Cl)cc4)c23)cc(OC)c1	78.4	4.4
COc1ccc(CNC(=O)C(=O)NCC(c2cccs2)S(=O)(=O)c2cccs2)cc1 (stereo not given)	19.4	0.9
O=C(Nc1cccc(C(=O)N2CCN(c3ccc(F)cc3)CC2)c1)c1nsc2ccccc12	-17.9	1.6
Cc1ccc(NC(=O)c2sc3ncnc(N(C)C4CCCCC4)c3c2C)c(C)c1	-4.0	-0.4
Cn1c(-n2cccc2)c(-c2c(-c3ccc(F)cc3)[nH]c3c2c(=O)n(C)c(=O)n3C)c(=O)n(C)c1=O	-11.4	0.4
COC(=O)c1cc2oc(C)cc2n1CC(=O)Nc1cc(Cl)ccc1OC	-16.1	-0.3
COc1ccc(OC)c(NC(=O)CCc2c(C)nn(-c3ccc(N4CCCC4)nn3)c2C)c1	-3.5	0.2
